Screening data: PubChem, Fisher Drug Discovery Resource Center
NPYLR7 agonist – mosquito NPYLR7 agonism; HEK293T NPYLR7/Galpha15, GCaMP6s calcium fluorescence; activation, % at 10 µM; 0.15% of 270,000 active; in the data active = activation above about 40%;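 also: 0% = vehicle and 100% = reference agonist at the receptor; some compounds past the cut are filed as inactive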
NPYLR7 agonist max-min – also measured in NPYLR7 agonist; calls as there; activation, %; measured here: Max-Min RFU normalised activation; some inactives read as strong as hits;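 span of the calcium signal over five minutes; 0% = vehicle and 100% = native peptide agonist; compound fluorescence can raise it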
* marks the source's active call; other numbers are inactive results; & = joins results of further samples. These rows are one share of the data (hit frequency here may not be typical).

SMILES | NPYLR7 agonist | NPYLR7 agonist max-min
CN(Cc1nc2ccccc2[nH]1)C(=O)CCCCN1Cc2ccccc2C1=O | -8 | -11
Cc1cc(C)c2c(c1)NC(=O)C2CC(=O)NCCc1ncccc1C (centres undefined) | 6 | -6
OCC1(CO)COC(c2ccccc2)=N1 | -4 | -4
O=C(c1cc(F)cc2c1OCOC2)N1CCOC(COc2ccc3c(c2)CCCC3)C1 (centres undefined) | 26 | 35
COc1ccc(C(=O)OCC(=O)n2c(C)c(C)c3ccccc32)cc1 | -2 | -6
CC1CC(=O)Nc2c1c(NC(=O)C1CC1)nn2C (centres undefined) | -18 | -18
COc1cccnc1C(=O)N(C)Cc1ccccc1-n1cccn1 | 11 | 4
COc1ccc(Br)cc1-c1nc(C(N)=O)c2[nH]c(=O)n(-c3cccc(C)c3)c2n1 | -3 | 2
COc1ccc(S(=O)(=O)NC(=O)C2(C)CCN2C(=O)Cc2cc(F)ccc2F)cc1 (centres undefined) | 2 | 1
C=CCn1c(=C(C#N)C(=O)C(C)(C)C)sc(=Cc2ccc(F)cc2)c1=O | 13 | 5
CCCC(=O)Nc1cccc(C(=O)NCc2ccccc2-n2cccn2)c1 | -1 | -6
CC(=O)NCCC1CCCCN1Cc1ccccc1-c1ccccc1 (centres undefined) | 0 | 0
Cn1nnc2c(=O)n(Cc3ccccc3)cnc21 | 3 | 5
CCNC(=O)N(CCN(C)C)Cc1csc(COc2cccc(C)c2)n1 | 18 | 20
CCCCc1ncc(-c2nccn2C(C)Cn2cccn2)[nH]1 (centres undefined) | 12 | 10
O=C(CC1=CCCCC1)N1CCc2c(cc(-c3cccc(F)c3)c(=O)n2CCN2CCCCC2)C1 | 6 | -1
C/C(CC(=O)Nc1cccc(Cl)c1C)=N/NC(=O)c1ccc([N+](=O)[O-])cc1Cl | 1 | -1
CC(C)(C)n1nc(-c2cccc3ccccc23)c2c(N)ncnc21 | 12 | 12
COC(=O)COc1c(C)cc(C(=O)O)cc1C | 7 | 6
CC1(C(=O)Nc2ccccc2Br)CCN1C(=O)Cc1ccccc1Cl (centres undefined) | 6 | 4
CC[C@H](C)C(=O)O[C@H]1CCC=C2C=C[C@H](C)C(CCC3C[C@@H](O)CC(=O)O3)[C@H]21 (some centres undefined) | -11 | -15
C=Cc1ccc(Cn2c(C)c(C(=O)Nc3ccc(OC)cc3)sc2=O)cc1 | 11 | 8
CCOC(=O)Cc1cc(=O)[nH]c(N=C(NC(=O)c2ccccc2)Nc2ccccc2C(F)(F)F)n1 | -2 | 24
Nc1ccnn1Cc1ccc(Cl)cc1Cl | 0 | 5
COCCN1CCCC[C@]2(C[C@H](CO)[C@H](c3ccco3)N2C(=O)C2CCCC2)C1=O | 5 | 7

Six entries from above, set out differently:
Second line of a record – NPYLR7 agonist	NPYLR7 agonist max-min
- CN(Cc1nc2ccccc2[nH]1)C(=O)CCCCN1Cc2ccccc2C1=O
    -8	-11
- Cc1cc(C)c2c(c1)NC(=O)C2CC(=O)NCCc1ncccc1C (centres undefined)
    6	-6
- OCC1(CO)COC(c2ccccc2)=N1
    -4	-4
- O=C(c1cc(F)cc2c1OCOC2)N1CCOC(COc2ccc3c(c2)CCCC3)C1 (centres undefined)
    26	35
- COc1ccc(C(=O)OCC(=O)n2c(C)c(C)c3ccccc32)cc1
    -2	-6
- CC1CC(=O)Nc2c1c(NC(=O)C1CC1)nn2C (centres undefined)
    -18	-18

One compound at a time (already shown):
`COc1ccc(C(=O)OCC(=O)n2c(C)c(C)c3ccccc32)cc1` as listed: NPYLR7 agonist: -2; NPYLR7 agonist max-min: -6
`CCCC(=O)Nc1cccc(C(=O)NCc2ccccc2-n2cccn2)c1` as listed: NPYLR7 agonist: -1; NPYLR7 agonist max-min: -6
`O=C(c1cc(F)cc2c1OCOC2)N1CCOC(COc2ccc3c(c2)CCCC3)C1` (centres undefined) as listed: NPYLR7 agonist: 26; NPYLR7 agonist max-min: 35

Carrying on:
SMILES | NPYLR7 agonist | NPYLR7 agonist max-min
C=CCNC(=O)NC1CCN(c2ccccc2C(=O)N2CCN(C3CCCCCC3)CC2)CC1 | 25 | 13
COc1ccc(NC(=O)CCC2CCCN(Cc3ccc4nsnc4c3)C2)cc1Cl (centres undefined) | 3 | -5
COc1ccc(C(=O)COC(=O)c2c3c(nc4ccccc24)CCCC3)cc1 | 0 | 6
O=C1CCCCC(=O)N(c2ccccc2)c2ccccc21 | -8 | -11
CC(=O)NCc1ccc(-c2csc(NC(=O)CN3C(=O)C(C)Oc4ccccc43)n2)cc1 (centres undefined) | 11 | 8
O=C(c1ccc(CSc2nnc(Cc3ccccc3)n2-c2ccccc2F)cc1)N1CCN(c2ccccc2F)CC1 | -5 | 8
O=C(O)c1coc(COc2cccc3cccnc23)n1 | 15 | 5
CN(C)c1ccc(NC(=O)C2CC2)cc1CN(CC1CC1)C(=O)c1cccs1 | 27 | 22
CCc1cc(N2CCN(c3ccccc3Cl)CC2)nc(SCc2cccc(C(=O)NCc3ccco3)c2)n1 | 1 | 14
CCOc1c(I)cc(C(=O)O)cc1OC | 9 | 10
CCOc1ccc(-c2cnc(-c3nccn3CC)[nH]2)cc1OCC | 1 | 0
CC(C)C(NS(=O)(=O)c1cc(F)cc(F)c1)c1cccs1 (centres undefined) | 5&8 | 3&6
C[C@@H](NC(=O)C1(N(C)CCc2ccccc2)Cc2ccccc2C1)C(N)=O | 4 | 3
O=C1N(Cc2ccc(F)c(F)c2)c2ccccc2C12NCCS2 (centres undefined) | 26 | 26
c1ccc2oc(NC3=NCN(C4CCCCCC4)CN3)nc2c1 | 9 | 1
COc1cccc(C(=O)N2CCc3cc(OC)c(OC)cc3C2c2ccccc2Cl)c1 (centres undefined) | 18 | 11
Cc1ncoc1C(=O)NCc1cccnc1N1CCN(c2ccccn2)CC1 | 4 | 0
CC1(C(=O)NCc2ccc3c(c2)OCO3)CCN1Cc1ccc2ccccc2c1 (centres undefined) | -3 | -6
Cc1ccc(C)c(CS(=O)(=O)c2ncccc2Cl)c1 | 7 | 5
COC(=O)CCN1C(=O)c2cccc([N+](=O)[O-])c2C1=O | -8 | -13
CC(C)COc1ccccc1CN(C)C(=O)c1ccncc1 | 2 | 0
O=C(CSc1ccncc1)N1CCCC(c2ccccc2)C1 (centres undefined) | 1 | -6
CCNC(=O)N(CC(=O)Nc1c(-c2ccccc2)c(C)nn1-c1ccc(C)cc1)C(C)C | 1 | 7
CC(C)C(NC1CCOCC1)C(=O)Nc1ccc2oc(=O)n(C)c2c1 (centres undefined) | 0 | -1
CC(=O)N1CCc2c(nc(-c3ccccn3)nc2NCc2cnc(C)cn2)C1 | 6 | 4
Further compounds follow:
SMILES | NPYLR7 agonist | NPYLR7 agonist max-min
CCNS(=O)(=O)c1ccc(NC(=O)c2nc3nc(C)cc(C(F)F)n3n2)cc1 | -2 | -11
Cc1onc(-c2c(Cl)cccc2Cl)c1C(=O)NC1CCN(Cc2ccccc2)CC1 | 6 | 9
O=C(NCCc1ccc(C(F)(F)F)cc1)NCCc1cccs1 | 9 | 5
Cc1ccc(NC(=O)N2CCC3(CC2)NC(C(=O)NCCc2ccc(Cl)cc2Cl)CS3)cc1C (centres undefined) | -2 | 4
CC(=O)Nc1ccc(C(=O)N2CCN(Cc3cc(=O)c(OCc4ccc(C(C)(C)C)cc4)co3)CC2)cc1 | -2 | 1
COc1ccc(NC(=O)C2(C)CCN2C(=O)C(C)C)cc1F (centres undefined) | 6 | 2
Nn1ccc2nc3ccn(CCC4=CCCCC4)c(=O)c3cc2c1=O | -5 | -3
Cc1cccc(-n2nc3c(c2NC(=O)c2ccccc2)CS(=O)(=O)C3)c1C | 1 | -2
COc1ccccc1N1CCN(CC(O)COc2cccc3ccccc23)CC1 (centres undefined) | -11&7&-10&2 | -17&-8&-12&-26
COc1ccc(C(=O)NC2CC2)cc1OC1CCN(Cc2cc(CC(C)C)n[nH]2)CC1 | 5&-1 | -1&-4
CC(C)(C#N)C(=O)Nc1cc(-c2ccccc2F)no1 | -9 | -9
COc1cc(OC)cc(-c2ccc(OC)nn2)c1 | 9 | 5
O=C(Nc1ccc(-n2cnnn2)cc1)C1CC1 | 7 | 5
CCC(C)(C)c1ccc(OCCCC(=O)Nn2cnnc2)c(C(C)(C)CC)c1 | -10 | -17
Cc1nn(C)c(Oc2ccc(Cl)cc2)c1C1CC(=O)Nc2[nH]ncc21 (centres undefined) | 9 | 5
CCC(NC(=O)c1csc(CCc2ccccc2)n1)C1CCOC1 (centres undefined) | -1 | -1
c1ccc(Cn2c(CSc3nc4ccccc4n3Cc3ccccc3)nc3ccccc32)cc1 | -3 | -3
c1ccc2c(c1)CC(CNCc1ccsc1)(N1CCCCC1)C2 | 0 | -5
Cc1cc(Cl)ccc1N1CCN(C(=O)C(C)C)C(C)C1=O (centres undefined) | 4 | 0
O=C(c1ccc(F)cn1)N1CCOc2c(O)cc(-c3cccc(Cl)c3)cc2C1 | 6 | 4
Cc1noc(C)c1C(=O)N1CCC1(C)C(=O)NCc1ccc(Cl)cc1 (centres undefined) | -5 | -2
CCCCOCCOCC(=O)N1CCN(Cc2cccc(-c3noc(CC(C)C)n3)c2)CC1 | 2 | -1
CCCCN(C)c1c(C)nc2ccc(C(=O)N(CC)CCN(C)C)cn12 | -5 | -8
CCN(C)Cc1ccc(-c2nc(-c3cccnc3)cc(=O)[nH]2)cc1 | 3 | 1
Cc1cc(C)n(CCC(=O)N2CCCC(CCC(=O)N(C)CCc3ccccn3)C2)n1 (centres undefined) | 10 | 9
(list continues)
SMILES | NPYLR7 agonist | NPYLR7 agonist max-min
Cc1cc(C(=O)N2CCC(n3nccc3NC(=O)CCCc3ccccc3)CC2)n(C)n1 | -6 | -10
CC(=O)c1ccc(CN2CCC(C(O)CC(C)C)CC2)cc1 (centres undefined) | 2 | -1
Cc1nn(C)c(C)c1CCC(=O)Nc1cccc(OCC#N)c1 | 2 | 0
COc1ccccc1C(=O)NN1C(=O)C2C3C=CC(C4CC34)C2C1=O (centres undefined) | 2 | 0
COc1ccc(CCn2c(-c3c(OC)ccc4ccccc34)nc3cc(Cl)ccc3c2=O)cc1 | 4 | 0
Cc1cc(O)c(CN(C)C(C2CC2)C2CC2)cc1C | -2 | -4
O=C(c1ccc(Cl)cc1OC1CCN(CC2CC=CCC2)CC1)N1CCCCC1 (centres undefined) | -1 | -6
COC(=O)c1ccc(CSc2nc3c(cnn3-c3ccccc3OC)c(=O)[nH]2)o1 | 0 | -1
CCOc1cc(-c2nnc(NC(=O)C3=COCCO3)o2)cc(OCC)c1OCC | 7 | 3
Cc1ccc(NC(=O)C2(C)CCCN2CC(C)C)cc1C (centres undefined) | 7 | 3
COc1ccc(S(=O)(=O)N(CC(=O)Nc2ccccc2)c2ccc(C)cc2)cc1OC | 10 | 1
CC1(C)CC(NC2=NCCCCC2)CC(C)(C)N1 | 3 | 2
O=C1Nc2ccc(Br)cc2C12Nc1ccccc1CO2 (centres undefined) | 7 | 0
CCOC(=O)N1CCN(C(=O)CSc2ccc(-c3ccco3)nn2)CC1 | 3 | -11
CCN1CCN(C(c2ccc(Br)cc2)C2Sc3nc(-c4ccco4)nn3C2=O)CC1 (centres undefined) | -3 | -2
FC(F)(F)c1cccc(N2CCC(N=Cc3ccccn3)=N2)c1 | 6 | -4
COc1cccc(C(CN2CCN(C(=O)c3ccncc3)CC2)OCc2cccc(Cl)c2)c1 (centres undefined) | -7 | 2
O=C(NCC1CCCO1)c1cnn2c1NC(c1cccs1)CC2C(F)(F)F (centres undefined) | -13 | -16
OCCNc1cc(-c2ccc3c(c2)OCO3)c2cc[nH]c2n1 | 12 | 9
Cc1ccc(C(=O)NCc2cccc(CN3CCOCC3)c2)cc1C | -2 | -4
CCCCc1noc(CN(CC)c2ccccc2C)n1 | -3 | -6
O=C(Cn1nc(C2CC2)c2cnn(-c3ccccc3)c2c1=O)Nc1ccccc1 | -1 | -1
COCCNC(=O)C(NC(=O)c1ccc(F)cc1)C1CCN(S(=O)(=O)c2ccc(Cl)cc2)CC1 (centres undefined) | 4 | 3
CCc1nc2cc(-c3ccccc3CN3CCOCC3)ccc2o1 | 4 | 2
Cc1cccc2[nH]c(CCN(C)C(=O)c3cc(C4CC4)[nH]n3)nc12 | 3 | -4
(list continues)
SMILES | NPYLR7 agonist | NPYLR7 agonist max-min
Cc1ccn(-c2ccc(N(CCO)Cc3cccnc3)nn2)n1 | 4 | 2
Cc1cccc(-n2c(CNC(=O)c3ccco3)nnc2SCC(=O)Nc2ccc(F)cc2)c1 | -14 | -7
CN=c1scc(-c2ccc(F)cc2)n1N=Cc1ccc(F)cc1 | 0 | -1
CCN(CCN1C(=O)CSC1c1cc(OC)ccc1OC)C(=O)COC (centres undefined) | 8 | 13
c1cnc(-c2nc(CCNC3CCC4(CCNCC4)CC3)cs2)cn1 | 15 | 13
O=C(Cn1nnnc1-c1ccc(Br)cc1)c1ccccc1 | 0 | 0
Cn1ncc(-c2nc(C3CC3)no2)c1NC(=O)C1Cc2cc(Cl)ccc2O1 (centres undefined) | 6 | 2
Brc1cc2c(cc1Cn1nnc(-c3ccccc3)n1)OCCO2 | 3 | 3
COc1ccc(CCN2CCC(CN(C)Cc3cnc[nH]3)CC2)cc1 | 2 | -3
CCOc1cccc2sc(N(Cc3cccnc3)C(=O)c3ccco3)nc12 | -17 | -13
Cc1nc(-n2cnnc2)ccc1-c1cccc(Cl)c1Cl | -2 | -5
CCn1c(C2CCN(Cc3ccc(C#CC(C)(C)O)s3)CC2)nn(C)c1=O | 3 | 2
CSCCN1CCC(NC(=O)OC(C)(C)C)CC1 | 1 | -1
Nc1n[nH]c(-c2ccc(F)cc2)n1 | -6 | 3
c1ccc(-c2nc3c(c(N4CCN(Cc5ccon5)CC4)n2)CCC3)cc1 | -4 | -8
O=C1/C(=C/c2cccc(Cl)c2)Oc2c1ccc1c2CN(C2CCS(=O)(=O)C2)CO1 (centres undefined) | 49 | 39
